Screens deposited in PubChem by Vanderbilt University.
GIRK2 act: GIRK2 channel activation; P48051; HEK293-GIRK2 thallium flux, Thallos fluorescence; calls only for hits at 25 µM; 63,000 compounds, 0.05% hits;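 active means among the strongest 0.2% of first-round signals and kept after retests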;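 further: first round at about 10 µM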
Target sequence (P48051 whole entry, looked up): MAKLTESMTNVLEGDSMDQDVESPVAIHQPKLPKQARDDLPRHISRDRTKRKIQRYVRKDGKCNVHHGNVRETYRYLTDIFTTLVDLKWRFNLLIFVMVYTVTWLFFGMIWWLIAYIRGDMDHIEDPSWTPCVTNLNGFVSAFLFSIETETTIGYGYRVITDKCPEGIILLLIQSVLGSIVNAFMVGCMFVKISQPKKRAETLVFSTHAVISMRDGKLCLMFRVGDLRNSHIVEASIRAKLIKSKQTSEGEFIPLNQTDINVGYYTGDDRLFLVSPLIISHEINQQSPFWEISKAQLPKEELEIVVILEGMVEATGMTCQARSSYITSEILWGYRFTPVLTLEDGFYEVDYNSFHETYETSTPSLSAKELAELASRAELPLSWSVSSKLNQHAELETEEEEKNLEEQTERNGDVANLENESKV
Calls only; i = inactive. The list is partial. The share of hits here may be higher or lower than overall.

item | compound | GIRK2 act
1 | CCSc1nnc(NC(=O)CN2CCC(c3nnc(-c4ccc(F)cc4)o3)CC2)s1 | i
2 | COc1ccccc1N1CCN(C(=O)CSc2cc(NCc3ccccc3Cl)ncn2)CC1 | i
3 | O=C(NCc1ccc(Cl)cc1)NCc1ccc(C(=O)c2cccs2)s1 | i
4 | COc1ccc(NC(=O)c2ccc(Oc3nccnc3N3CCC(C)CC3)cc2)cc1OC | i
5 | COc1ccccc1OCC#CCNC(=O)C1CCCC1 | i
6 | COc1ccccc1CNC(=O)C(=O)NCCCn1ccnc1 | i
7 | COc1ccc(C(=O)NCCC(O)C2CC2)cc1OC (configuration not stated) | i
8 | COc1ccc(N2CCCn3c2nc2c3c(=O)n(CCc3ccccc3)c(=O)n2C)cc1 | i
9 | Cc1csc(COc2ccc(C(=O)NC(C)CCc3ccccc3)cc2)n1 (configuration not stated) | i
10 | N#Cc1ccc(CSc2nc(-c3ccccc3)ccc2C#N)cc1 | i
11 | O=C(CCSc1ccccc1)Nc1ccc2c(c1)CCC(=O)N2 | i
12 | O=C(NC1CCN(C(=O)c2cc(-c3cccc(Cl)c3)n[nH]2)CC1)c1ccccc1Cl | i
13 | COc1cc(C(=O)Nc2ccc3c(c2)CCCN3C(=O)c2ccccc2)cc(OC)c1OC | i
14 | CCOC(=O)Cn1c(=O)c2c(nc3n(-c4ccc(OC)cc4)c(-c4ccccc4)cn23)n(C)c1=O | i
15 | CCOC(=O)N1CCN(C(=O)C2CC2c2ccc3c(c2)OCO3)CC1 (configuration not stated) | i
16 | O=C(NCCNc1ccc(-n2cccc2)nn1)c1cccc(F)c1 | i
17 | COC(=O)CN1CCN(c2nc3c(c(=O)[nH]c(=O)n3C)n2Cc2ccccc2)CC1 | i
18 | Cc1nccn1-c1ccc(C(=O)NCc2ccc(Cl)cc2)nn1 | i
19 | O=C(NCc1ccc2c(c1)OCO2)c1cn(-c2cccc(F)c2)nn1 | i
20 | Cc1cc(C(=O)N2CCC(Oc3ncccc3Cl)CC2)c(C)o1 | i
21 | Cc1ccc(C(=O)Nc2cnccn2)cc1S(=O)(=O)N1CCOCC1 | i
22 | Cn1cc(-c2nc(-c3ccc4c(c3)OCO4)no2)c(=O)c2cc(F)c(N3CCCCC3)cc21 | i
23 | CCCN(C)c1nccn2c(=O)n(CC(=O)Nc3ccc(OC)c(Cl)c3)nc12 | i
24 | Cc1oc(-c2cccc(Cl)c2)nc1Cn1nnc(C(=O)Nc2ccc(Cl)cc2)c1N | i
25 | N#Cc1nc(-c2cccs2)oc1N1CCN(C(=O)c2ccccc2)CC1 | i
26 | Cc1ccc(N2CCn3c2nc2c3c(=O)n(CC(=O)O)c(=O)n2C)cc1 | i
27 | O=c1oc2ccccc2cc1NS(=O)(=O)CCOc1ccccc1 | i
28 | O=C(c1csc(-c2cc3ccccc3[nH]2)n1)N1CCN(C(=O)c2ccco2)CC1 | i
29 | Clc1cccc(-c2nnc(Cc3nc(-c4ccccc4OCc4ccccc4)no3)o2)c1 | i
30 | Cc1cc(C)nc(Nc2nc(CC(=O)Nc3cccnc3)cs2)n1 | i

Given with each value named: part of the list above
19: O=C(NCc1ccc2c(c1)OCO2)c1cn(-c2cccc(F)c2)nn1
- GIRK2 act: i
20: Cc1cc(C(=O)N2CCC(Oc3ncccc3Cl)CC2)c(C)o1
- GIRK2 act: i
21: Cc1ccc(C(=O)Nc2cnccn2)cc1S(=O)(=O)N1CCOCC1
- GIRK2 act: i
22: Cn1cc(-c2nc(-c3ccc4c(c3)OCO4)no2)c(=O)c2cc(F)c(N3CCCCC3)cc21
- GIRK2 act: i

Continued:
item | compound | GIRK2 act
31 | COc1ccc(CCNS(=O)(=O)c2cc3c4c(c2)CCN4C(=O)CC3)cc1 | i
32 | O=C(Nc1cccc(Cl)c1)c1cc2cc(Cl)ccc2oc1=O | i
33 | COc1ccc(NC(=O)Cn2c(N3CCOCC3)nc(C)cc2=O)c(OC)c1 | i
34 | O=C(c1ccco1)N1CCN(Cc2nc(-c3ccco3)cs2)CC1 | i
35 | Cc1noc(C)c1S(=O)(=O)NCc1cc(-c2ccncc2)n(C2CCCC2)n1 | i
36 | CSc1nnc(-c2ccccc2NC(=O)/C=C/c2cccs2)o1 | i
37 | COc1cccc(-c2ccc(N)c(C(=O)O)c2)c1 | i
38 | CNC(=O)CSc1ncc(-c2ccc(OC)cc2)n1-c1ccc(Cl)cc1 | i
39 | Cc1nc2ccccc2c(=O)n1-c1cccc(NC(=O)CC(C)C)c1 | i
40 | CC(C)(C)N1CC(c2nc3ccccc3n2CCOc2ccccc2)CC1=O (configuration not stated) | i
41 | O=C(Nc1cnc(N2CCOCC2)nc1)c1cccc2ccccc12 | i
42 | COc1cccc(CNC(=O)C(=O)NCCC2CCCCN2S(=O)(=O)c2ccccc2)c1 (configuration not stated) | i
43 | N#Cc1ccc(COCC2CCN(CC(=O)NCc3ccc(F)cc3)CC2)cc1 | i
44 | COCCn1c(=O)c2c(nc3n(C4CCCC4)c(C)c(C)n23)n(C)c1=O | i
45 | CC(=O)c1ccc(N2CCN(C(=O)C3CSCCC(=O)N3)CC2)cc1 (configuration not stated) | i

Along the list, as entered above:
GIRK2 act for nos. 31 to 34, in order: i, i, i, i

Back to the main list with the 3 entries that preceded the break.
item | compound | GIRK2 act
43 | N#Cc1ccc(COCC2CCN(CC(=O)NCc3ccc(F)cc3)CC2)cc1 | i
44 | COCCn1c(=O)c2c(nc3n(C4CCCC4)c(C)c(C)n23)n(C)c1=O | i
45 | CC(=O)c1ccc(N2CCN(C(=O)C3CSCCC(=O)N3)CC2)cc1 (configuration not stated) | i
46 | CSc1ccc(-c2noc(Cn3nc(-c4ccccc4)ccc3=O)n2)cc1 | i
47 | Cc1ccc(S(=O)(=O)N2CCC(Oc3ccc(C(F)(F)F)cn3)CC2)c(C)c1 | i
48 | CCCS(=O)(=O)N1CCN(Cc2nc3ccc(OC)cc3[nH]2)CC1 | i
49 | CC(C)(Oc1ccc(Cl)cc1)C(=O)NCC1CCN(S(=O)(=O)c2cccnc2)CC1 | i
50 | Cc1ccc(S(=O)(=O)N(C)c2cc(S(=O)(=O)NC(C)C)c(C)cc2C)cc1 | i
51 | Cc1ccc2nc(NC(=O)CN3CC(c4nc(C5CC5)no4)C3)sc2c1 | i
52 | CCOC(=O)c1ccc(NC(=O)c2c(S(=O)(=O)Nc3ccc(C)cc3)n[nH]c2C)cc1 | i
53 | O=C(Nc1ccc(F)cc1)Nc1nnc(-c2ccc(Cl)cc2Cl)o1 | i
54 | O=C(CSC1CCCC1)N1CCN(CCn2cccn2)CC1 | i
55 | CC(=O)N1N=C(c2ccc(C)cc2)CC1c1cn(-c2ccccc2)nc1C (configuration not stated) | i
56 | CCCCCCCCCCCC1NC(C(=O)O)CS1 (configuration not stated) | i
57 | CC/C(=C\C(=N\O)C(N)=O)C(C)[N+](=O)[O-] (configuration not stated) | i
58 | COc1ccc(C(=O)Nc2ccc3c(c2)CCCN3C(C)=O)cc1 | i
59 | CCOC(=O)c1sc(-c2ccccc2)cc1NC(=O)CCCS(=O)(=O)Cc1ccccc1 | i
60 | COc1ccc(F)cc1S(=O)(=O)NCCC(O)c1cccc2ccccc12 (configuration not stated) | i
61 | CCc1cccc2sc(N3CCN(C(=O)NCc4cccs4)CC3)nc12 | i
62 | COCCNC(=O)Nc1ccc2c(c1)C(=O)NCC2 | i
63 | O=C(NCc1ccc(F)cc1)c1cn(-c2cccc(F)c2)nn1 | i
64 | COc1ccc(CC(C)(O)CNC(=O)Cc2ccc(S(=O)(=O)C(C)C)cc2)cc1 (configuration not stated) | i
65 | COc1ccccc1N1CCN(C(CNS(=O)(=O)c2ccc(C)cc2)c2cccnc2)CC1 (configuration not stated) | i
66 | O=C(Cn1nc2c3cc(-c4ccc(Cl)cc4)nn3ccn2c1=O)NCc1ccccc1 | i
67 | O=C(Cn1nc2ccc(Sc3cccc(F)c3)nn2c1=O)Nc1cccc(C(F)(F)F)c1 | i
68 | COc1cccc(-n2ccn(CC(=O)Nc3ccc(C)c(C)c3)c(=O)c2=O)c1 | i
69 | COCCCn1c(C(=O)NCC(=O)OC)cc2c(=O)n3ccccc3nc21 | i
70 | O=C(Cn1cc(-c2nc(-c3cccs3)no2)ccc1=O)NCc1ccco1 | i
71 | COc1cccc(N2CC(C(=O)NCc3ccsc3)CC2=O)c1 (configuration not stated) | i
72 | Cc1ccc(-c2ccnc(SCC(=O)Nc3ccccc3C)n2)cc1C | i
73 | CNc1oc(-c2ccc(COc3ccc(OC)cc3)o2)nc1C#N | i
74 | CCOc1ccccc1NC(=O)CSc1nccn1-c1ccc(C(=O)NCc2ccc(C)o2)cc1 | i
75 | CCCCc1ccc(CC(Sc2nnc(N)s2)C(=O)OC)cc1 (configuration not stated) | i
76 | O=C(CSC1=NNC2C3CC(c4ccccc4)NN3C=CN12)NCCc1ccccc1 (configuration not stated) | i
77 | COc1ccc(C(C)=O)cc1CSc1nc2ccccc2c(=O)n1NC(=O)c1ccccc1 | i
78 | CCCCc1ccc(N2CC(C)Cn3c2nc2c3c(=O)n(CC(=O)O)c(=O)n2C)cc1 (configuration not stated) | i
79 | CN(CC(=O)NCc1cccs1)c1nc2c(C(F)(F)F)cccc2s1 | i
80 | CCOC(=O)N1CCN(CC(O)COc2ccc(Cl)c(C)c2)CC1 (configuration not stated) | i
81 | CCCN(C)c1nccn2c(=O)n(CC(=O)Nc3ccc(C)cc3Cl)nc12 | i
82 | Cn1nc(C(=O)N2CCN(c3ccc(F)c(Cl)c3)CC2)ccc1=O | i
83 | COc1cc(OC)c(NC(=O)CN2CCC(Cn3c(C)nc4ccccc43)CC2)cc1Cl | i
84 | CCCCCCNC(=O)/C(C#N)=C1\N=C(NC(=O)c2ccc(OC)cc2)c2ccccc21 | i
85 | CCc1cccc(C)c1NC(=O)CSC1=NS(=O)(=O)c2ccccc2N1CC | i
86 | Cc1nc(NC(=O)CN(C)c2nc3c(C)ccc(C)c3s2)sc1C | i
87 | CCNC(=O)N1CCc2sccc2C1C(=O)OC (configuration not stated) | i
88 | Cc1cc(C)n(-c2cc(N3CCN(C(=O)/C=C/c4ccco4)CC3)nc(C)n2)n1 | i
89 | COc1ccc(/C=C2\Oc3c(ccc4c3CN(Cc3ccco3)CO4)C2=O)cc1OC | i
90 | COc1ccc2[nH]c3c(SCC(=O)N4CCN(c5ccccc5F)CC4)ncnc3c2c1 | i
91 | O=C(C(=O)N1CCN(Cc2nnnn2-c2ccccc2)CC1)c1c[nH]c2ccccc12 | i
92 | O=C(NCc1cccc(Br)c1)c1c(O)c2sccc2[nH]c1=O | i
93 | CCc1ccc2oc(=O)cc(CN(C)Cc3ccccc3)c2c1 | i
94 | O=C(Cn1cccc(S(=O)(=O)N2CCCC2)c1=O)NCc1ccc2c(c1)OCO2 | i
95 | CCc1ccc(-n2nnc3c(=O)n(Cc4nc(-c5cc(OC)cc(OC)c5)no4)cnc32)cc1 | i
96 | COc1ccc(-c2nc(C#N)c(N3CCN(C(=O)c4ccc(OC)c(OC)c4)CC3)o2)cc1 | i
97 | CS(=O)(=O)N1CCc2nc(NC(=O)c3ccc(=O)[nH]n3)sc2C1 | i
98 | COc1cc(/C=C2\SC(=S)N(c3ccc(NC(C)=O)cc3)C2=O)cc(OC)c1OC | i
99 | Cc1cc(NS(=O)(=O)c2ccc(N/C=C(/C#N)c3nc(-c4ccc(F)cc4)cs3)cc2)no1 | i
100 | COc1ccc(OC)c(NC(=O)Cn2cccc(-c3nc(-c4ccc(C)cc4)no3)c2=O)c1 | i
101 | CC(=O)Nc1ccc(SCCCC(=O)N2CCN(C)CC2)nn1 | i
102 | Cc1cccc(NCCCn2c(C)cn3c4c(=O)[nH]c(=O)n(C)c4nc23)c1C | i
103 | COC(=O)c1ccc(NC(=O)c2csc3nc(-c4cccc(OC)c4)cn23)cc1 | i
104 | O=C(Nc1ccc(Cl)cc1Cl)c1cc2n(n1)CCCO2 | i
105 | COc1ccc(C(=O)CN2CCC(Cn3cnc4ccccc43)CC2)cc1 | i

Later entries:
item | compound | GIRK2 act
106 | CCOc1ccc(N2CCCCn3c2nc2c3c(=O)n(CC(C)C)c(=O)n2C)cc1 | i
107 | CC(=O)NC1C(=O)N(Cc2ccc(OC(C)C)cc2)c2ccc(Cl)cc21 (configuration not stated) | i
108 | Cn1c(CN2CCN(C(=O)c3cc4ccccc4oc3=O)CC2)nc2ccccc21 | i
109 | COc1ccc(CCNC(=O)c2cc(=O)c(OCc3ccccc3)co2)cc1OC | i
110 | COC(=O)COc1cc(-c2ccc(OC)cc2)nc2ccc([N+](=O)[O-])cc12 | i
111 | O=C(NCCCn1ccnc1)c1nnn(-c2ccc(C(F)(F)F)cc2)n1 | i
112 | COCCOC(=O)c1c(C)oc2ccc(OC(C)C(=O)O)cc12 (configuration not stated) | i
113 | COc1cc(C(=O)NCC(F)(F)F)on1 | i
114 | CCSc1nnc(NC(=O)c2nnn(-c3nccs3)c2C)s1 | i
115 | c1ccc(-c2cc(N3CCc4ccccc4C3)ncn2)cc1 | i
116 | Cc1noc(-c2ccc(NC(=O)NCc3cccs3)cc2)n1 | i
117 | COc1ccc(C(C)C)cc1S(=O)(=O)NC1CCCCCC1 | i
118 | CN1C(=O)Cc2cc(NC(=O)c3cc(C4CC4)on3)ccc21 | i
119 | COc1cccc(COc2coc(C(=O)NCCC3=CCCCC3)cc2=O)c1 | i
120 | COC(=O)C1=C(C)NC(=O)NC1c1ccc(OCc2ccccc2)cc1 (configuration not stated) | i
121 | COc1ccc(CCC(=O)Nc2c3c(nn2CC(=O)NCC2CCCO2)CSC3)cc1 (configuration not stated) | i
122 | CC(C)Sc1ccc(CC(=O)Nc2ccc3c(c2)CC(=O)N3)cc1 | i
123 | CCN1C(=O)CCc2cc(NC(=O)NCCc3ccccc3)ccc21 | i
124 | Cc1nc(C(=O)N2CCN(c3cc(-n4ccnc4C)ncn3)CC2)cc(-n2cccn2)n1 | i
125 | CC1=C(C(=O)Nc2ccc(C)c(C)c2)C(c2cccs2)NC(=O)N1 (configuration not stated) | i
126 | O=C(CCCc1ccccc1)NCC1CCS(=O)(=O)C1 (configuration not stated) | i
127 | CCOC(=O)c1[nH]c(C)cc1C | i
128 | COc1ccc(C(=O)N2CCC(c3ccc(OC)cc3)C2)cc1 (configuration not stated) | i
129 | COc1ccc(NC(=O)CN(C)c2nc3ccccc3s2)cc1Cl | i
130 | Cc1cc(NC(=O)c2ccc3ncsc3c2)n(-c2nc3c(F)cccc3s2)n1 | i
131 | CN(C)S(=O)(=O)NCCn1nc(C2CC2)n(-c2ccccc2)c1=O | i
